# nsP2pro inh – CHIKV nsP2 protease inhibition, primary qHTS | Q8JUX6 | FRET peptide cleavage, nsP2pro, fluorescence 1 h | Potency, µM (series often up to 24.9 µM), inactives show at the top dose activity change, negative = inhibition, hits mostly inhibitors | 31,000 tested, 1.1% active; active means well fitted inhibition curve with a large enough effect; inconclusive means small, poorly fitted or top-dose-only effect; inactive means no such curve, though single readings can be large or run the other way; further: nearly all actives have a fitted effect of over 60% in size; a reference inhibitor and vehicle were the controls
# Active calls of the source: *; i = inactive; u = inconclusive; & = joins results of further samples; [ ] = remark or other dose. On the % scale 0 is the no-effect control and ±100 the full control effect; potency means the concentration at half of the fitted maximal effect.
SMILES,nsP2pro inh
C[C@@H]1CC2C3C[C@H](F)C4=CC(=O)C=C[C@]4(C)[C@@]3(F)[C@@H](O)C[C@]2(C)[C@@]1(OC(=O)c1ccco1)C(=O)SCF (some centres undefined),18%
O=C(NCc1ccccc1Cl)c1ccc(Cn2c(SCc3ccccc3)nc3cccnc32)cc1,1%
CC(C)c1nc2c(c(-c3ccc(O)cc3)n1)CN(Cc1cccn1C)CC2,1%
COCC(=O)N1c2nc(C(C)C)nn2C2(CCCCC2)[C@@H]2CCCC[C@@H]21,11µM*
C(=C\c1cccs1)/c1cccnc1,3%
Cc1sc2c(c1C)C(c1ccc(Cl)cc1)=N[C@@H](CC(=O)OC(C)(C)C)c1nnc(C)n1-2,5%&4%
CN1Cc2ccc(NCc3ccccc3)nc2C(C)(C(=O)NCc2cccnc2)C1 (centres undefined),-3%[39.2 µM]
CC(=O)N[C@@H](CCC(N)=O)C(=O)O,-2%
CC1CCCN(Cc2c(O)ccc3c(=O)c(-c4ccc(Cl)cc4)c(C(F)(F)F)oc23)C1 (centres undefined),-25%
Cc1cc(F)ccc1NCc1ccccc1-c1nnc(-c2ccccc2Cl)o1,-25%

# Quoted at random: two entries already listed.
SMILES,nsP2pro inh
CC1CCCN(Cc2c(O)ccc3c(=O)c(-c4ccc(Cl)cc4)c(C(F)(F)F)oc23)C1 (centres undefined),-25%
COCC(=O)N1c2nc(C(C)C)nn2C2(CCCCC2)[C@@H]2CCCC[C@@H]21,11µM*

# (list continues)
SMILES,nsP2pro inh
C=C1CCC2C(C)(COC3OC(COC(=O)CC(=O)O)C(O)C(O)C3O)CCCC2(C)C1CCC1=CCOC1=O (centres undefined),13%[10 µM]
FC(F)(F)c1ccc(CSc2nc3ncc(Br)cc3[nH]2)cc1,-4%
CC(C)c1nc2c(c(-c3ccc(O)cc3)n1)CCN(CC1CCCCC1)CC2,i
CNC(=O)c1cccc(-c2cnc3[nH]cc(CC(=O)Nc4ccccc4Cl)c3c2)c1,i
Cn1ncc2c(-c3ccc([S+](C)(=O)[O-])cc3)cc(C(=O)N3CCCC3)nc21,0%
Cc1nnc(-c2cnn(C)c2N)n1CCCc1ccccn1,-8%
COc1cc(O)c(C(CC(=O)N2CCN(c3ccc(F)cc3)CC2)c2ccc3c(c2)OCO3)c(OC)c1 (centres undefined),0%
CCCCCN(CCCOC)C(=O)C(CCC(=O)O)NC(=O)c1ccc(Cl)c(Cl)c1 (centres undefined),-5%
CCOC(=O)c1nnc2c(-c3ccc(OC)cc3)c(C)nn2c1N,-8%
COc1cc(C(=O)NC2CCN(C)CC2)c(F)cc1Nc1ncc2c(n1)N(C1CCCC1)CC(F)(F)C(=O)N2C,5%
O=C1CC(NS(=O)(=O)N2CCCC2)CN1Cc1ccc(F)cc1 (centres undefined),-9%
COc1ccc(CN2CC(Oc3ccccc3C(=O)NCc3ccccc3)C2)c(OC)c1,i
Cc1noc(C)c1-c1cc2c(cc(C)n2C)c(N2CCN(c3ccccn3)CC2)n1,-6%[39.2 µM]
CCOC(=O)c1ccccc1NC(=O)CN1C(=O)CC(c2ccco2)Sc2ccccc21 (centres undefined),-30%
CCn1c(SCc2c(F)cccc2Cl)nc(=O)c2c(C(=O)OC)cc(C3CC3)nc21,-14%
CN(CCN1CCCCCC1)C(=O)c1cc(COc2ccccc2)[nH]n1,i
COc1ccc(-c2csc3nc(-c4ccc(F)cc4)oc(=O)c23)cc1OC,-10%
C=C[C@@]12COC(=O)C(=C)[C@@H]1[C@@H](O)[C@H](C(=C)C(=O)OC)[C@@H](O)C2,-13%
COc1ccccc1-n1cc(C2=CCN(CCOCCO)CC2)cn1,i
C[C@@H]1[C@H](c2ccccc2)C[C@H](NC(=O)c2cnc3c(c2)C[C@@]2(C3)C(=O)Nc3ncccc32)C(=O)N1CC(F)(F)F,-8%
COCCOCCOc1ccc(C2=N[C@@](C)(C(=O)O)CS2)c(O)c1,128%[activator]
COc1ccccc1-c1nnc2ccc(C(=O)N3CCN(C(C)=O)CC3)cn12,0%
Cc1ccc(C)c(OCCn2cc(C(=O)c3cccs3)c3ccccc32)c1,-18%
Nc1c(C(=O)Nc2ccccc2)nnn1Cc1ccc(F)cc1Cl,-12%
Cc1ccc2c(=O)cc(C(=O)Nc3sc4c(c3C(=O)NCc3cccnc3)CCCC4)oc2c1C,-13%
COc1ccccc1C(=O)N1CC(N(C)c2ccccc2C)C1,-7%
O=c1c2oc3ccccc3c2n(Cc2ccc(Cl)cc2)c(=O)n1Cc1ccco1,-30%
COc1cccc(CN2CCC3(CC2)C(C(=O)O)CC(=O)N3C)c1OC (centres undefined),3%
COc1nnc(-c2ccc(N3CCCCC3)c(NC(=O)c3ccccc3Cl)c2)c2ccccc12,-16%
CCCn1c2ccccc2c2cnn(CC(=O)NC(C)CC)c(=O)c21 (centres undefined),-14%
COc1ccc(-c2cc(N3CCCC(NC(=O)c4cccc(C)c4)C3)n[nH]2)cc1 (centres undefined),i
CCCN(Cc1cccs1)C(=O)Nc1cc(C)ccc1OC,-3%
COC(=O)c1ccc(O)c2ncc(N3CC[C@@H](N)C3)cc12,i
Cc1noc(C)c1-c1ccc2ncnc(NCc3ccc(-c4ccccc4)cc3)c2c1,-6%
O=C1CCCC2=C1C(c1[nH]ncc1Cl)NC(=NCc1cccnc1)N2 (centres undefined),-9%
CC1=C[C@@H](CNC(=O)COc2ccccc2)[C@H](C(C)C)C[C@H]1CC(=O)NCCN(C)C,-5%[39.2 µM]
COCCNC(=O)CN1C(=O)COc2ccc(S(=O)(=O)N3CCCC3)cc21,-13%
CCC1CCc2c(sc(NC(=O)C3c4ccccc4Oc4ccccc43)c2C(=O)OC)C1 (centres undefined),-11%
C=CCCC(CN1CCCOCC1)Oc1cc(C#N)ccn1 (centres undefined),-12%
NCC(=O)N1CCC2(CC1)CN(C(=O)Cc1cccc(Cl)c1)CCO2,7%

# Exported bar-delimited: 6 of the compounds above
canonical_smiles | nsP2pro inh
CN(CCN1CCCCCC1)C(=O)c1cc(COc2ccccc2)[nH]n1 | i
NCC(=O)N1CCC2(CC1)CN(C(=O)Cc1cccc(Cl)c1)CCO2 | 7%
CCn1c(SCc2c(F)cccc2Cl)nc(=O)c2c(C(=O)OC)cc(C3CC3)nc21 | -14%
CC(=O)N[C@@H](CCC(N)=O)C(=O)O | -2%
O=C1CCCC2=C1C(c1[nH]ncc1Cl)NC(=NCc1cccnc1)N2 (centres undefined) | -9%
CCOC(=O)c1ccccc1NC(=O)CN1C(=O)CC(c2ccco2)Sc2ccccc21 (centres undefined) | -30%

# Carrying on.
SMILES,nsP2pro inh
CCCCOc1ccc(CC/C=C2\SC(=O)N(CCN)C2=O)cc1,379%[activator]
COCC(=O)NC[C@H]1O[C@@H](CO)[C@@H](O)[C@H]1N1CCN(c2cccc(C(F)(F)F)c2)CC1,-8%
N#Cc1ccc(-c2ccc(CNc3ccc(N4CCOCC4)cc3)o2)cc1,-20%
Cc1cnc2c(C(=O)N3CCCn4nc(C(C)O)cc4C3)cnn2c1 (centres undefined),3%
Cc1sc(NC(=O)Cc2ccc3c(c2)OCO3)nc1-c1ccc2c(c1)CCN2,i
CC(=O)Nc1ccc(S(=O)(=O)Nc2cccc3cccnc23)cc1,i
O=C(CCC1N=C2c3ccccc3N=C(SCC(=O)Nc3ccccc3F)N2C1=O)NCc1ccco1 (centres undefined),u
COc1ccc(CNC(=O)CCc2c(C)nc3cc(-c4ccc(OC)cc4OC)nn3c2C)cc1,-8%
CCn1c(CO)nnc1C1CC(NC(=O)CCc2c(C)nn(C)c2C)C1 (centres undefined),1%
O=C(Nc1ccccc1F)c1ccc(O)c2ncccc12,i
CC1=C(C(=O)OCCN(Cc2ccccc2)c2ccccc2)C(c2cccc([N+](=O)[O-])c2)C(P2(=O)OCC(C)(C)CO2)=C(C)N1 (centres undefined),1%
COc1ccc(CN2CCC3(C2)C(=NC2CCCCC2)NC(=O)N3c2cc(F)cc(F)c2)cc1 (centres undefined),i
COc1ccc(C2Nc3ccccc3C(=O)N2Cc2ccc3c(c2)OCO3)cc1COc1c(C)cc(NC(C)=O)cc1C (centres undefined),-8%
Cc1cnc(-c2ccccc2C2COC2)nc1NCc1ccc(-n2ccnn2)cc1,i
CCCCNC(=O)CCn1c(=O)c2ccccc2n(Cc2cccc(Cl)c2)c1=O,-28%
COC(=O)C1=C(C#N)NC(C)=C(C(=O)OC(C)C)C1c1cccc([N+](=O)[O-])c1 (centres undefined),4%
CC(C)(C)Nc1nc2cc(Cl)c(Cl)cc2nc1S(C)(=O)=O,71%[activator]
CN(C)c1cccc(-c2cnc(Nc3cnccn3)c3c2CCO3)c1,i
CCOc1ccc(-n2nc(CO)c(C(=O)NCc3ccccn3)n2)cc1,-2%
Cc1cc2n(n1)CCC(=O)N2Cc1ccc(C(=O)Nc2ccc(Br)c(C)c2)cc1,-9%

# Some of the entries so far, tab-delimited:
structure	nsP2pro inh
CCCCOc1ccc(CC/C=C2\SC(=O)N(CCN)C2=O)cc1	379%[activator]
COCC(=O)NC[C@H]1O[C@@H](CO)[C@@H](O)[C@H]1N1CCN(c2cccc(C(F)(F)F)c2)CC1	-8%
N#Cc1ccc(-c2ccc(CNc3ccc(N4CCOCC4)cc3)o2)cc1	-20%
Cc1cnc2c(C(=O)N3CCCn4nc(C(C)O)cc4C3)cnn2c1 (centres undefined)	3%

# Continued:
SMILES,nsP2pro inh
COc1ccccc1OCC(=O)NC1CC(=O)N(c2ccc3c(c2)OCCO3)C1 (centres undefined),-25%
C[S+](=O)([O-])NC1CC2(CCN(C(=O)c3ccccc3)CC2)c2ccccc21 (centres undefined),-1%
O=C(Cn1c(=O)n2nc(-c3cccc(F)c3)nc2c2ccccc21)N1CCN(c2ccc(F)cc2)CC1,-17%
Cc1cc2c(c(=O)o1)C=C1CC[C@H]([C@H](C)Cn3cnc(=N)c4[nH]cnc43)C[C@@H]1O2,55%[activator]
O=C(Cn1cccc1-c1nc(-c2ccccc2)no1)N1CCN(c2ccccc2)CC1,-15%
COc1ccc(NCc2cccn2-c2nnc(N3CCOCC3)s2)c(OC)c1,u
Cc1ccc(C)c(OCCn2c(CCNC(=O)C3CCCCC3)nc3ccccc32)c1,u
CNc1oc(-c2cccc(Cl)c2)nc1C#N,4%
COc1ccc(/C=C/C(=O)O[C@@H]2[C@@H](O)[C@H](C)O[C@@H](O[C@H]3[C@@H]4C=CO[C@@H](O[C@H]5O[C@@H](CO)[C@H](O)[C@@H](O)[C@@H]5O)[C@@H]4[C@@]4(CO)O[C@@H]34)[C@@H]2OC(C)=O)cc1,39%[activator][10 µM]
CC1=C(/C=C/C(C)=C/C=C/C(C)=C/CO)C(C)(C)CCC1,-15%
COc1ccc(-c2nc(-c3ccccc3)c(-c3ccc(F)cc3)[nH]2)c(OC)c1C,0%
C/C=C1/C(=O)C[C@H]2[C@@H]3CCC4=CC(=O)CC[C@]4(C)[C@H]3CC[C@]12C,-7%
COc1c2c(c(C)c3c1C(=O)OC3)OC1(C)CC(O)C34OC(OC)(CCC3(C)C1C2)OC4(C)CO (centres undefined),4%[10 µM]
CC(=O)c1ccc(-c2csc(N3CCC(C(N)=O)CC3)n2)cc1,i
CC(C)(C)c1cc(CC2(NCc3ccc(Cl)cc3)COC2)no1,-2%[39.2 µM]
Cc1ccc(NC(=O)N2CCC3(CC2)Oc2ccccc2C(=O)N3Cc2ccc(F)cc2)cc1,-8%
c1cc2c(cc1CNc1ccc(N3CCCCC3)cc1)OCO2,-1%
CCC(C)C(=O)OC1CC(O)C23C4OCC5(C(O)CC2C1(C)C(O)O4)C3C(=O)C(O)C1(C)C(O)(c2ccoc2)CC2OC251 (centres undefined),-5%[10 µM]
COC(=O)c1n[nH]n(-c2ccccc2)c1=O,-10%
Clc1ccccc1C(c1ccccc1)(c1ccccc1)n1ccnc1,100%[activator]
CCc1ccc2occ(CC(=O)Nc3c(C(=O)Nc4ccc(OC)cc4)oc4ccccc34)c2c1,-14%
COCCNC(=O)CCn1c(=O)c2cc(OC)c(OC)cc2n(CC(=O)Nc2ccc(F)c(Cl)c2)c1=O,-13%
Cn1c(NCCN(CCO)CCCc2ccc([N+](=O)[O-])cc2)cc(=O)n(C)c1=O,-9%
CCOC(=O)c1cccc(NC(=O)c2cc(S(=O)(=O)N3CCCC3)cn2C)c1,-5%
CN(Cc1cccs1)c1ncnc2ccc(-c3ccc4c(c3)OCO4)cc12,-1%
C[C@@H]1C(=O)O[C@H]2C[C@]34[C@H]5C[C@@H](C(C)(C)C)[C@]36[C@@H](OC(=O)[C@H]6O)O[C@]4(C(=O)O5)[C@]21O,19%[10 µM]
COc1ccccc1N(Cc1cc2cccc(C)c2[nH]c1=O)C(=O)c1cccc(Cl)c1,-14%
CC1(C(=O)N2CCN(c3ncccn3)CC2)CCOCC1,0%
c1ccc(CNc2ncc(CN3CCC4(CCNCC4)C3)cn2)cc1,i
COc1ccc(CNS(=O)(=O)c2cc(-c3[nH]ncc3C(=O)N3CCCC3)oc2C)cc1,7.1µM*
Cc1cnc(C(=O)N2CCc3onc(-c4ccc(F)c(F)c4)c3C2)cn1,-6%
O=C(c1cc(CN2CCC(Cc3ccccc3)CC2)on1)N1CCN2CCCC2C1 (centres undefined),-4%
OCCN1CCN(c2ncnc3c2cnn3-c2cccc(Cl)c2)CC1,4%
CNC(=O)Nc1cccn2nc(-c3ccccc3)nc12,-28%
CCCCc1nnc(SCc2cc(=O)c3cc(C(=O)OCC)ccc3[nH]2)n1C,6%
CCOc1ccc(CCNC(=O)c2cc3sccc3n2C)cc1OCC,-14%
O=C(c1cnccn1)N1CCN2C(=O)N(C3CCOCC3)C[C@H]2C1,-19%[39.2 µM]
CNC[C@H](O)[C@@H](O)[C@H](O)[C@H](O)CO,-1%
COc1ccc(CNc2nc3c(c(=O)n(C)c(=O)n3C)n2Cc2ccccc2Cl)cc1,-20%
COc1ncccc1Nc1cnc2ccc(N3CCOCC3)nn12,2%[39.2 µM]
Cn1nc2n(c1=O)CCC(NC(=O)c1n[nH]c3c1CC(C(C)(C)C)CC3)CC2 (centres undefined),1%

# A portion of the library (hit frequency here may not be typical).
